Screening data (PubChem)
Calb biofilm kill: mixture kills Candida albicans biofilm cells. AID 1242. 120,000 tested, 0.02% active. inhibition, % at 7.6 µM. C. albicans biofilm persisters + clotrimazole, fluorescence viability; primary screen in compound mixtures of four per well;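 active = inhibition above 30.3% in the primary screen of four-compound pools, then above 30% when the compound was retested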;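 note: compounds exposed to preformed 24 h biofilms for 48 h; the number belongs to the whole pool; some results filed as inactive read as strong as hits; inactives centre near 12; 0% = biofilm with clotrimazole alone and 100% = kill control; retested singly at about 60 µM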
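Incubation: 24 h biofilm formation, then 48 h compound exposure, 37 °C | Material: C. albicans biofilms | Buffer or medium: RPMI/MOPS medium, pH 7.0 | Measured by: 2-h Alamar Blue fluorescence, 535/590 nm excitation/emission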
* hit, by the source's call; & = joins results of further samples.

SMILES | Calb biofilm kill
O=C(c1ccc(F)cc1F)C1CCN(c2ccc([N+](=O)[O-])cn2)CC1 | 9.9
CCO[C@H]1OC(C(=O)NCc2ccccc2)=C[C@@H](c2cn(C(C)=O)c3ccccc23)[C@@H]1CCCO | 12.1
O=C1CN(C(=O)c2cc([N+](=O)[O-])ccc2Cl)C(c2ccc(F)cc2)c2cc(F)ccc2N1 (stereo not given) | 8.0
S=C(Nc1ccc2nc(-c3ccccn3)c(-c3ccccn3)nc2c1)N1CCOCC1 | 20.4
Cc1cc([N+](=O)[O-])cnc1N1CCOCC1 | 15.3
O=C(O)/C=C/c1ccc(OCCCF)cc1 | 5.6
CC(OC(=O)c1ccc2c(=O)n3c(nc2c1)CCCCC3)C(=O)Nc1ncc(Cl)cc1Cl (stereo not given) | 14.4
Cc1cc(Br)ccc1SCC(=O)OCC(=O)c1c(N)n(C)c(=O)n(C)c1=O | 18.5
COc1cc2c(cc1OC)C(C(=O)Nc1ccccc1N1CCN(C)CC1)C1c3ccccc3CCN1C2=O (stereo not given) | -0.9
CC1(c2ccccc2)NC(=O)N(NC(=O)CSc2n[nH]c(N)n2)C1=O (stereo not given) | 19.1
COc1ccc(/C=N/NC(=O)CCCCCNC(=O)c2ccccc2)cc1 | 18.9
CC(=O)Nc1ccc2nc(NC(=O)COc3cccc(C)c3)sc2c1 | 14.4
COc1ccc(C2(C(=O)Nc3c(C)n(C)n(-c4ccccc4)c3=O)CCCC2)cc1OC | 11.2
CC(C)(C)OC(=O)CC[C@@H](C(=O)N1CCN(C(=O)OC(C)(C)C)CC1)n1cc(C(CO)NC(=O)OC(C)(C)C)nn1 (stereo not given in full) | 15.6
CCNc1ccc(C(=O)OCC(=O)N(Cc2ccccc2)C(C)(C)C)cc1[N+](=O)[O-] | 7.3
N#C/C(=C\c1ccc(Sc2ccc(Cl)cc2)o1)c1nc2ccccc2[nH]1 | 11.1
Cc1ccc2c(c1)C=CC(C#N)N2C(=O)c1ccccc1 (stereo not given) | 16.2
COc1ccc(Nc2nc(Cl)c(C=O)s2)cc1 | 15.1
COc1cc2c(C(=O)NCCN(C)C)cn(CC(C)C)c(=O)c2cc1OC | 28.1
Cc1ccc(/C=C(\C#N)C(=O)NC(C)C)o1 | 13.5
Cn1nc(C(=O)N2CCN(S(=O)(=O)/C=C/c3ccccc3)CC2)c2ccccc2c1=O | 0.8
Cc1ccc(C(=O)Nc2cccc(C(=O)NCc3ccccc3)c2)cc1 | 9.4
ClCc1csc(-c2ccccc2Cl)n1 | 16.9
OC(CCN1CCCCC1)(c1ccccc1)c1ccccc1 | 12.1
COc1ccnc(Oc2cc(Cl)cc(Cl)c2)c1C#N | 5.4
O=C(Nc1cnccc1C(F)(F)F)NC1CCCCC1 | 18.3
Nc1[nH]n(-c2ccccc2)c(=O)c1N=Nc1ccc2c(c1)OCCO2 | 3.6
CCOC(=O)CSc1ccc(S(=O)(=O)N(CC)CC)cc1[N+](=O)[O-] | 12.9
O=C(Cn1c(=O)c(=O)n(Cc2ccccc2)c2ccc(Cl)cc21)Nc1cccc(F)c1 | -5.0
Cc1cc(CSc2nc(C)cc(=O)[nH]2)c2ncccc2c1 | 1.6
CCOC(=O)c1cnc2c(c(C)nn2CC)c1Cl | -3.7
Cc1c(C(C)C)c(=O)n(-c2ccc(S(=O)(=O)NC3CC3)cc2)n1C | 5.3
CCOC(=O)c1ccc(CSC(=N)N)o1 | 20.2
CSc1nc(C)c(CCO)c(=O)[nH]1 | 13.1
Cc1cc(C2=NNC(=Nc3ccc(S(=O)(=O)N4CCOCC4)cc3)SC2)c(C)n1CC1CCCO1 (stereo not given) | 5.2
COc1ccc(Br)c(C(=O)NCCC(C)C)c1 | 18.8
COC(=O)C1=CN(Cc2cccs2)C=C(C(=O)OC)C1c1cccc(O)c1 | 1.0
Cc1cccc(-c2ncc(CN3CCCC(CO)(Cc4cccc(Cl)c4)C3)cn2)c1 (stereo not given) | 8.6
O=c1[nH][nH]c(=O)n1-c1ccccc1 | 3.9
CCN(CC)CCN1C(=O)C(=O)/C(=C(/O)c2ccc(OC(C)C)cc2)C1c1cccs1 (stereo not given) | 4.7
CCOC(=O)c1c(NC(=O)CSc2nc3cc(Cl)ccc3c(=O)n2Cc2ccco2)sc(C(=O)N(C)C)c1C | 16.8
C/C(=N/NC(=O)CN1CCN(S(=O)(=O)c2ccc(C)cc2)CC1)c1cccc(O)c1 | 21.3
CN(C)c1ccc(NC(=O)/C=C/c2c(Cl)cccc2Cl)cc1 | 21.1
COc1ccc(C2CC(=O)C(C3NCCc4ccccc43)=C(O)C2n2cncn2)cc1 (stereo not given) | 7.2
Cc1c(NC(=O)c2ccccc2)cccc1[N+](=O)[O-] | 6.1
O=C(CN1C(=O)NC2(CCCCC2)C1=O)Nc1ccc(F)cc1 | 5.0
CC(=O)Nc1ccc(OCC(O)Cn2ccnc2)cc1 (stereo not given) | 6.8
Cc1cccc(N2C(=O)CCC2=O)n1 | 13.5
O=C(COC(=O)c1ccc(S(=O)(=O)Nc2ccccc2)cc1)NCC1CCCO1 (stereo not given) | 15.2
CCCCn1c(=O)c(CCC(=O)OCC(=O)Nc2ccc(F)c(Cl)c2)nc2ccccc21 | 7.7

Continued.
SMILES | Calb biofilm kill
CC(C)c1ccc(NC(=S)NNC(=O)C2CC2)cc1 | -5.8
Clc1ccc(C2[C@H]3CN(Cc4cccnc4)[C@H](c4ccccc4)C34CC2(c2ccccc2)C4)cn1 (stereo not given in full) | 16.6
O=C(/C=C\c1ccco1)Oc1cccc2cccnc12 | -3.5
Cc1ccsc1/C=N/Nc1nc2ccccc2[nH]1 | 18.9
O=C1OC(c2ccccc2)=C/C1=C/c1cccs1 | 6.6
Cc1cc(C)n(CC(=O)N/N=C/c2cc([N+](=O)[O-])ccc2O)n1 | 16.9
Cc1csc(N/N=C/c2ccccn2)n1 | 17.2
FC(F)(F)c1ccccc1NC1=NCCC1 | 8.6
CC1=C/C(=N\OS(=O)(=O)c2ccccc2)C(C(C)C)=CC1=O | 13.2
Cc1cc(C(=O)CSc2nnc(N)s2)c(C)n1Cc1ccco1 | 15.5
O=C(/C=C/c1ccccc1)NC1CC2CCC1C2 (stereo not given) | 12.5
CC1(NC(=O)Nc2ccccc2)CCS(=O)(=O)C1 (stereo not given) | 3.0
O=C(Nc1nnc(SCc2ccc(F)cc2)s1)c1cnccn1 | 19.0
Cc1nc(NC(=O)C2CC2)sc1C(=O)N(C)C | 5.8
Cc1ccc(C2CCN(C(=S)Nc3cccc(C)c3)C2)cc1 (stereo not given) | 15.1
CCCCNc1c([N+](=O)[O-])c(=O)n(C)c2ccccc12 | 17.6
Cc1cc(NC(=O)CN2C(=O)NC3(CCCCC3C)C2=O)no1 (stereo not given) | 6.5
CC(=O)c1sc(NC(=O)COc2ccc(Br)cc2)nc1C | 5.8
O=C1CCCN1c1ccc(S(=O)(=O)N2CCN(c3ccccc3)CC2)cc1 | 21.8
Cc1ccc(N=Cc2cc(Br)cc(Cl)c2O)cc1 | 0.0
Cc1ccc(C(=O)Nc2ccccc2C(=O)NC(C(=O)O)C(C)C)cc1 (stereo not given) | 12.6
Cc1cccc(CN2CCN(C(=O)CCl)CC2)c1 | 12.7
CCOC(=O)CN1C(=O)S/C(=C/C=C/c2ccc(N(C)C)cc2)C1=O | 19.6
O=C1Nc2ccc(Br)cc2C1(O)Cc1ccccn1 (stereo not given) | 12.8
O=C(NCC1([N+](=O)[O-])CN(C(=O)c2ccccc2)CN(C(=O)c2ccccc2)C1)c1ccccc1 | -0.5
COc1ccc(/C=N/Nc2nn3cnnc3c3ccccc23)cc1 | 16.9
O=C(NCc1ccc2c(c1)OCO2)c1ccc(N2CCCCCC2)c([N+](=O)[O-])c1 | 5.8
N#Cc1c(-c2ccc(F)cc2)nc(-c2ccccc2)[nH]c1=O | 6.6
CCCCN(C)C(=O)CCC(=O)Nc1ccc2nc(N3CCN(C)CC3)cc(C)c2c1 | 12.4
CCn1c(/C=C/N(C(C)=O)c2ccccc2)[n+](CCCS(=O)(=O)[O-])c2cc(Cl)c(Cl)cc21 | 17.2
CC1CCCCC1NC(=O)C1CCC(CNc2c(N3CCCCC3)c(=O)c2=O)CC1 (stereo not given) | 21.6
O=C(O)/C=C/C(=O)Nc1ccc(-c2ccccc2)cc1 | 7.4&15.7
CNC(=S)N1N=C2c3ccccc3CCC2C1c1ccccc1Cl (stereo not given) | 2.8
O=C(COC(=O)CNC(=O)c1cccc(F)c1)NCCC1=CCCCC1 | 25.4
O=C1C2C3C=CC(C4CC34)C2C(=O)N1/N=C/c1ccc([N+](=O)[O-])s1 (stereo not given) | -0.1
COC(=O)c1cc(C(=O)NC(C)(C)CC(C)(C)C)cc([N+](=O)[O-])c1 | -3.2
CC(C)c1nc2oc3c(=O)[nH]cnc3c2c2c1COC(C)(C)C2 | 18.1
O=C(N/N=C/c1ccco1)c1cc(=O)[nH]c2ccccc12 | 9.5
O=C(Nc1ccc([N+](=O)[O-])cc1Br)c1cccnc1 | -6.4
COc1ccc(-c2cc(C3CCN(C(=O)OC(C)(C)C)CC3)[nH]n2)cc1 | 24.9
CCOC(=O)C1CCCN(C(=O)/C=C/c2ccccc2[N+](=O)[O-])C1 (stereo not given) | 8.6
Cc1ccccc1NC(=O)c1cc([N+](=O)[O-])ccc1NCCN1C(=O)CCC1=O | -0.5
O=C(CCCCn1c(=O)[nH]c2ccccc2c1=O)NCCc1c[nH]c2ccccc12 | 10.9
Cc1ccc2cc(/C=N/NC(=O)[C@@H]3CCCN3)c(Cl)nc2c1 | 36.0
Cc1ccc(O)c(NC(=S)NC(=O)/C=C/c2ccco2)c1 | 13.9
O=C1OCCN1C(=O)[C@H]1[C@H](c2ccc([N+](=O)[O-])cc2)C(c2cccc(Cl)c2)=NN1c1ccccc1 | 8.8
COc1ccc([C@@]2(O)c3c(ccc(CC=C(C)C)c3O)NC(=O)[C@@H]2OC)cc1 | 20.3
COc1cc(C2OCC3C(c4cc(OC)c(OC)c(OC)c4)OCC23)cc(OC)c1OC (stereo not given) | 18.5
CC(C1CC1)N(Cc1ccccc1)C(=O)NC(=O)c1ccc(F)cc1 (stereo not given) | 6.7
COc1cc(/C=C/C(=O)OCC(=O)N2CC(=O)Nc3ccccc32)ccc1O | 23.3

Molecules shown so far with a cyano group (5):
SMILES | Calb biofilm kill
N#C/C(=C\c1ccc(Sc2ccc(Cl)cc2)o1)c1nc2ccccc2[nH]1 | 11.1
Cc1ccc2c(c1)C=CC(C#N)N2C(=O)c1ccccc1 (stereo not given) | 16.2
Cc1ccc(/C=C(\C#N)C(=O)NC(C)C)o1 | 13.5
COc1ccnc(Oc2cc(Cl)cc(Cl)c2)c1C#N | 5.4
N#Cc1c(-c2ccc(F)cc2)nc(-c2ccccc2)[nH]c1=O | 6.6

(list continues)
SMILES | Calb biofilm kill
O=C(Cc1nn[nH]n1)Nc1ccc(F)cc1F | 20.5
O=C(Nc1ccccc1Cl)C1C2CCC3C(CCC21)C3(Cl)Cl (stereo not given) | 17.9
COc1ccc(CN2C(=O)CCC2(C)C(=O)NC2CCCC2)c(OC)c1 (stereo not given) | 4.1
Cc1ccc(S(=O)(=O)c2nc(Nc3ccccc3C#N)sc2Cl)cc1 | 16.1
CC(=O)c1ccc(OCC(O)CN2CCN(CC(O)COc3ccc(C(C)=O)cc3)CC2)cc1 (stereo not given) | 9.0
NC(=O)c1ccc(NC(=O)COC(=O)CCCN2C(=O)c3cccc4cccc(c34)C2=O)cc1 | 5.3
CCSc1nc2ccccc2n1CC(=O)N1CCOCC1 | 10.3
O=C(O)CSCCOc1ccc(OCCSCC(=O)O)cc1 | -1.6
O=C(NCc1ccc2c(c1)OCO2)c1ccc(CSCc2cccc(Cl)c2)o1 | 15.8
Cc1cc(/C=C\c2nc(O)c([N+](=O)[O-])c(=O)[nH]2)c(C)n1-c1ccccc1 | 8.1
Cc1oc(-c2cccc(F)c2)nc1CN1CCCCC1CCn1cccn1 (stereo not given) | -6.0
CCOc1ccc2nc(NC(=O)C3=NN(c4ccccc4)C(=O)CC3)sc2c1 | 17.9
COc1cccc(C(=O)Nc2cc3c(cc2Br)OCCCO3)c1 | 7.2
N=c1sccn1CC(=O)N1N=C(c2ccc(Cl)cc2)CC1c1ccco1 (stereo not given) | -0.8
Cc1ccc(S(=O)(=O)N2CCN(c3cnn(C)c(=O)c3Cl)CC2)cc1 | 17.2
COC(=O)c1sccc1NC(=O)Nc1cc(C)ccc1C | -4.4
COC(=O)N1N=C(c2ccc(Br)cc2)CC1(O)C(F)(F)F (stereo not given) | 9.0
Cc1cccc(COCC(CC(C)C)N2CCN(C(=O)c3ccc(C(C)(C)C)cc3)CCC2=O)c1 (stereo not given) | 6.6
CC(C)(C(N)=O)c1ccccc1 | 15.2
O=C(/C=C/c1ccc([N+](=O)[O-])s1)N1CCCC1 | 1.8
CCOC(=O)c1oc2nc(CC(C)C)c3c(c2c1N)CCCC3 | 2.5
Cc1cnn(Cc2cccnc2)c1N | 19.7
COc1ccc(-c2cc(-c3n[nH]c(=S)n3-c3ccccc3Cl)[nH]n2)cc1 | 12.4
Nc1nc(-c2ccc([N+](=O)[O-])cc2)cs1 | 10.7
Cc1ccc(NC(=O)CSc2nc(N)cc(=O)[nH]2)cc1Cl | 20.0
O=C(c1ccccc1Br)N1CCCC(c2nc(-c3cccs3)no2)C1 (stereo not given) | 12.9
O=C(N/N=C/c1ccccn1)c1cccnc1 | 20.5
CCOC(=O)C1=C(C)NC(C)=C(C(=O)OCC)C1c1cccs1 | 12.0
CCCCOC(=O)/C(=C/C=C/c1ccccc1)NC(=O)c1ccccc1 | 4.7
O=C(CSc1n[nH]c(=O)n1Cc1ccco1)Nc1ccccc1Cl | 3.8

Some of the compounds tested; the hit share may differ from the screen's.
